NPYLR7 ag: agonists of mosquito NPYLR7 receptor, primary screen, cell-based, Aedes aegypti, calcium fluorescence, mosquito biting behavior; Aedes aegypti neuropeptide Y-like receptor 7 (NPYLR7); HEK293T NPYLR7/Galpha15, GCaMP6s calcium fluorescence; activation, % at 10 µM; 0.15% of 270,000 active; in the data active = activation above about 40%;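 also: 0% = vehicle and 100% = reference agonist at the receptor; some compounds past the cut are filed as inactive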
NPYLR7 ag max-min: further read-out of NPYLR7 ag, marked with its call; activation, %; measured here: Max-Min RFU normalised activation; some inactives read as strong as hits;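 span of the calcium signal over five minutes; 0% = vehicle and 100% = native peptide agonist; compound fluorescence can raise it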
* = called active by the depositor; & = joins results of further samples. Only part of the results is shown; rates above refer to the full screens.

Start of the data: the first 7 records (preview)
O=C1CC(c2nc3ccccc3n2Cc2ccccc2)CN1Cc1ccc(F)cc1 (centres undefined) was read as NPYLR7 ag 1 and NPYLR7 ag max-min 6.
For CCc1ccccc1NC(=O)N1CCN(c2cc(Oc3ccc(F)cc3F)ncn2)CC1C (centres undefined) the results were NPYLR7 ag -13 and NPYLR7 ag max-min 0.
`COCCOc1nc(-c2cccs2)n(-c2ccc(NC(=O)c3ccc(OC)cc3)cc2)n1` gave NPYLR7 ag -5 and NPYLR7 ag max-min 4.
O=C(O)c1ccccc1S(=O)(=O)Nc1ccc(OC(F)(F)F)cc1 was read as NPYLR7 ag 3 and NPYLR7 ag max-min -1.
Screening CC(C)(C)NC(=O)CN1CCN(C(=O)c2cccc3cccnc23)CC1 returned NPYLR7 ag -2 and NPYLR7 ag max-min -3.
Cc1cc(Oc2cccc(C(C)C)c2)nc(SCc2cccc([N+](=O)[O-])c2)n1 was read as NPYLR7 ag -9 and NPYLR7 ag max-min -8.
Screening CC(C)Oc1nc(-c2cccc(F)c2)n(-c2ccc(NC(=O)c3ccc(-c4ccccc4)cc3)cc2)n1 returned NPYLR7 ag -13 and NPYLR7 ag max-min -16.

The list itself, from the first entry:
O=C1CC(c2nc3ccccc3n2Cc2ccccc2)CN1Cc1ccc(F)cc1 (centres undefined) was read as NPYLR7 ag 1 and NPYLR7 ag max-min 6.
For CCc1ccccc1NC(=O)N1CCN(c2cc(Oc3ccc(F)cc3F)ncn2)CC1C (centres undefined) the results were NPYLR7 ag -13 and NPYLR7 ag max-min 0.
`COCCOc1nc(-c2cccs2)n(-c2ccc(NC(=O)c3ccc(OC)cc3)cc2)n1` gave NPYLR7 ag -5 and NPYLR7 ag max-min 4.
O=C(O)c1ccccc1S(=O)(=O)Nc1ccc(OC(F)(F)F)cc1 was read as NPYLR7 ag 3 and NPYLR7 ag max-min -1.
Screening CC(C)(C)NC(=O)CN1CCN(C(=O)c2cccc3cccnc23)CC1 returned NPYLR7 ag -2 and NPYLR7 ag max-min -3.
Cc1cc(Oc2cccc(C(C)C)c2)nc(SCc2cccc([N+](=O)[O-])c2)n1 was read as NPYLR7 ag -9 and NPYLR7 ag max-min -8.
Screening CC(C)Oc1nc(-c2cccc(F)c2)n(-c2ccc(NC(=O)c3ccc(-c4ccccc4)cc3)cc2)n1 returned NPYLR7 ag -13 and NPYLR7 ag max-min -16.
For CN(Cc1ncccc1C(=O)O)C1CCN(Cc2ccccc2)C1 (centres undefined) the results were NPYLR7 ag 17 and NPYLR7 ag max-min 12.
O=C(NCC1CCCN(C2CCSCC2)C1)C1(c2ccc(Cl)cc2)CC1 (centres undefined) was read as NPYLR7 ag 3 and NPYLR7 ag max-min -4.
Screening CCc1nc2ccc(C(=O)N3CCNC(=O)C3)cn2c1N(C)Cc1ccc(Cl)cc1 returned NPYLR7 ag -6 and NPYLR7 ag max-min 31.
Screening Cc1nc(-c2ccccc2)sc1C(=O)NNS(=O)(=O)c1ccccc1C(F)(F)F returned NPYLR7 ag 2 and NPYLR7 ag max-min 5.
Cc1nc2c(sc3cccc(F)c32)c(=O)n1CC(=O)NCc1ccc(Cl)cc1 was read as NPYLR7 ag 0 and NPYLR7 ag max-min -1.
Screening CC(C)Cn1c(-c2c(-c3ccccc3)ncn2CCC(N)=O)nc2ccccc21 returned NPYLR7 ag -1 and NPYLR7 ag max-min 18.
`CC(Oc1ccc(C#N)cc1)C(=O)Nc1nc(CN2CCCCC2)cs1` (centres undefined) gave NPYLR7 ag 0 and NPYLR7 ag max-min -2.
For Cc1cccnc1CCNCc1c(C(=O)N2C[C@@H](C)O[C@@H](C)C2)nc2ccc(Cl)cn12 the results were NPYLR7 ag -6 and NPYLR7 ag max-min -11.
Screening COCCn1c(=O)c2c(ncn2Cc2ccc(OC)cc2)n(-c2cccc3ccccc23)c1=O returned NPYLR7 ag 5 and NPYLR7 ag max-min 4.
CNC(=O)Cc1nc(CS(=O)(=O)C2CCCc3ccccc32)cs1 (centres undefined) was read as NPYLR7 ag 6 and NPYLR7 ag max-min 3.
Screening N#Cc1sc(-c2cccc(Cl)c2)cc1N returned NPYLR7 ag -2 and NPYLR7 ag max-min 0.
`CN1CCC=C(C2CCCCN2C(=O)c2cc3ccccc3s2)C1` (centres undefined) gave NPYLR7 ag 2 and NPYLR7 ag max-min 4.
`O=C(c1cc2ccccc2oc1=O)n1cnc2ccccc21` gave NPYLR7 ag -3 and NPYLR7 ag max-min -7.

Three compounds already listed, arranged by molar mass, low to high.
`O=C(c1cc2ccccc2oc1=O)n1cnc2ccccc21` gave NPYLR7 ag -3 and NPYLR7 ag max-min -7.
Screening CC(C)Cn1c(-c2c(-c3ccccc3)ncn2CCC(N)=O)nc2ccccc21 returned NPYLR7 ag -1 and NPYLR7 ag max-min 18.
Cc1nc2c(sc3cccc(F)c32)c(=O)n1CC(=O)NCc1ccc(Cl)cc1 was read as NPYLR7 ag 0 and NPYLR7 ag max-min -1.

Next compounds follow.
For Cc1ccn2c(=O)c(NC(=O)C(C)Oc3ccc(C)c(C)c3)c(C)nc2c1 (centres undefined) the results were NPYLR7 ag -2 and NPYLR7 ag max-min -3.
For O=C(O)c1ccc(/C=N\NC(=O)C(NC(=O)c2ccccc2)c2n[nH]c(=O)c3ccccc23)cc1 (centres undefined) the results were NPYLR7 ag -11 and NPYLR7 ag max-min -17.
`O=C(CCc1cccc(F)c1)NC1CCOc2ccccc21` (centres undefined) gave NPYLR7 ag -3 and NPYLR7 ag max-min -6.
Screening COc1ccc(Cl)cc1CSC1=NCCCN1 returned NPYLR7 ag 0 and NPYLR7 ag max-min -4.
For CC1CCN(c2ncnc3c2nc2n3CCCCC2)CC1 the results were NPYLR7 ag 1 and NPYLR7 ag max-min -3.
CCOC(=O)CNC(=O)Cn1cc(OC)c(=O)cc1CN1CCN(c2ccccc2)CC1 was read as NPYLR7 ag -5 and NPYLR7 ag max-min -5.
`CCCCN(C)C(=O)c1sc(=O)n(Cc2cc(OC)ccc2Br)c1C` gave NPYLR7 ag 2 and NPYLR7 ag max-min -1.
`COc1ccc(CCNC(=O)N2CCc3nc(Nc4ccc(C(C)C)cc4)ncc3C2)cc1OC` gave NPYLR7 ag -4 and NPYLR7 ag max-min -4.
For O=C1CN(CC(=O)N2CCN(Cc3ccco3)CC2)CCN1 the results were NPYLR7 ag 4 and NPYLR7 ag max-min 4.
O=C(NCc1n[nH]c2c1CCCCC2)c1cn(Cc2ccccc2Cl)nn1 was read as NPYLR7 ag 10 and NPYLR7 ag max-min 9.
CCOc1ccc(NC(=NS(=O)(=O)c2ccc(C)cc2)Nc2nc(C)cc(C)n2)cc1 was read as NPYLR7 ag -6 and NPYLR7 ag max-min 1.
For Cc1csc(=O)n1CCOc1ccc(S(=O)(=O)c2ccccc2)cc1 the results were NPYLR7 ag -11 and NPYLR7 ag max-min -10.
`Cc1ccc(C2=NOC(CN(Cc3cccc(Cl)c3)C(=O)c3cccs3)C2)cc1` (centres undefined) gave NPYLR7 ag 23 and NPYLR7 ag max-min 19.
For COc1c(C)cc(C(=O)N2CCCC(N3CCC(CO)CC3)C2)cc1C (centres undefined) the results were NPYLR7 ag 10 and NPYLR7 ag max-min -6.
`CC(OC(=O)c1cc2c(s1)CCC2)C(=O)Nc1ccc(F)cc1Cl` (centres undefined) gave NPYLR7 ag 9 and NPYLR7 ag max-min 2.
CC(C)(C)c1nnc(NC(=O)Nc2ccc(Cl)cc2)s1 was read as NPYLR7 ag -9 and NPYLR7 ag max-min -10.
`O=C1CCCC(=O)C1=C1SCCCCS1` gave NPYLR7 ag 14 and NPYLR7 ag max-min 20.
For Cc1cc(C(=O)N2CCN(C(c3ccccc3)c3ccc(Br)cc3)CC2)no1 (centres undefined) the results were NPYLR7 ag -4 and NPYLR7 ag max-min -5.
`CN1CCN(c2ncccc2CNC(=O)C2CSC(C)(C)C(=O)N2)CC1` (centres undefined) gave NPYLR7 ag -6 and NPYLR7 ag max-min -7.
Screening O=C(C=C(C1CC1)C1CC1)Nc1cccc(OCCn2cncn2)c1 returned NPYLR7 ag 3 and NPYLR7 ag max-min 1.
`CC(c1ccccn1)N(C)Cc1cc(F)ccc1-n1cccn1` (centres undefined) gave NPYLR7 ag 6 and NPYLR7 ag max-min -2.
Cc1nc(-n2nc(-c3ccco3)cc2NC(=O)c2cccs2)[nH]c(=O)c1C was read as NPYLR7 ag 2 and NPYLR7 ag max-min -1.
`COCc1c(Br)c(C)nc(OCC(=O)N/N=C\c2cc(Cl)ccc2O)c1C#N` gave NPYLR7 ag -7 and NPYLR7 ag max-min -10.
C=CCn1c(COc2cccc(C)c2)n[nH]c1=S was read as NPYLR7 ag -4 and NPYLR7 ag max-min -8.
For O=C(COc1ccc(Cl)cc1)OCc1cc(-c2ccccc2F)on1 the results were NPYLR7 ag -2 and NPYLR7 ag max-min -5.
`CCC(=O)NCc1ccccc1-c1ccc2c(c1)OCO2` gave NPYLR7 ag 5 and NPYLR7 ag max-min 5.
For O=C(c1cccc(-n2cnnn2)c1)N1CCCC(c2nnc(-c3ccccc3F)s2)C1 (centres undefined) the results were NPYLR7 ag -10 and NPYLR7 ag max-min -12.
`Cc1sc(-c2c(C#N)c(N)nc3c2CCCC3)cc1[N+](=O)[O-]` gave NPYLR7 ag 0 and NPYLR7 ag max-min 0.
`Cc1ccc(NC(=O)Nc2ccc(N3CCCC3)c(C(=O)N3CCCC3)c2)cc1` gave NPYLR7 ag 2 and NPYLR7 ag max-min -1.
Screening COc1ccc(Oc2ccc([N+](=O)[O-])cc2C(=O)N2CCCC2c2ccncc2)cc1 (centres undefined) returned NPYLR7 ag -3 and NPYLR7 ag max-min -9.
Screening CCOC(=O)CNC(=O)c1ccc(-c2cc(-c3ccc(Cl)cc3Cl)[nH]n2)cc1 returned NPYLR7 ag 20 and NPYLR7 ag max-min 16.
`O=C1c2ccccc2NC(C2CC2)N1Cc1cccnc1` (centres undefined) gave NPYLR7 ag -25&-5 and NPYLR7 ag max-min -24&-6.
`Cc1nc2ccc(Cl)cn2c1CN(CCN1CCOCC1)Cc1ccco1` gave NPYLR7 ag -3 and NPYLR7 ag max-min -9.
`O=c1c2cnc3ncnn3c2ccn1Nc1nc2ccccc2s1` gave NPYLR7 ag 4 and NPYLR7 ag max-min 8.
For CCCC1=NN2C(=N)/C(=C/c3cccc([N+](=O)[O-])c3)C(=O)N=C2S1 the results were NPYLR7 ag 0 and NPYLR7 ag max-min -1.
Screening O=C(NCC1COc2ccccc2C1)C1CC2CCC1C2 (centres undefined) returned NPYLR7 ag -1 and NPYLR7 ag max-min -1.
`CCOC(=O)c1cnc(-c2ccccc2)nc1N1Cc2ccccc2C1` gave NPYLR7 ag 24 and NPYLR7 ag max-min 28.
C=CCC(C)(C)CN1CCC(CC(=O)NC)CC1 was read as NPYLR7 ag 6 and NPYLR7 ag max-min -5.
CN(CC1COc2ccccc2O1)c1ccc(S(C)(=O)=O)cc1S(C)(=O)=O (centres undefined) was read as NPYLR7 ag 1 and NPYLR7 ag max-min 4.
For Cc1nn(CCC(=O)Nc2ccccc2Oc2ccccc2)c(=O)c(C#N)c1C the results were NPYLR7 ag -2 and NPYLR7 ag max-min 3.
`COc1ccc2c(=O)c(-c3cnn(-c4ccccc4)c3)c(C)oc2c1` gave NPYLR7 ag -5 and NPYLR7 ag max-min -15.
Screening CCc1cccc(NC(C)C(=O)NCCc2ccc(OC)cc2)c1 (centres undefined) returned NPYLR7 ag -3 and NPYLR7 ag max-min -1.
Screening Cc1oc(C)c(C(=O)Nc2cccc(N3CCCC3=O)c2)c1C returned NPYLR7 ag 15 and NPYLR7 ag max-min 3.
Screening COc1cccc(CNC(=O)c2ccc(-c3ccc(F)cc3)s2)c1 returned NPYLR7 ag -2 and NPYLR7 ag max-min 8.
`C=CCSC1=C(C#N)C2(CCCCC2)C(C#N)C(N)=N1` (centres undefined) gave NPYLR7 ag 8 and NPYLR7 ag max-min 11.
CCCSc1ncccc1C(=O)Nc1cc(C(C)(C)C)nn1-c1cccc(F)c1 was read as NPYLR7 ag 4 and NPYLR7 ag max-min -5.
For Cc1ccccc1CNC(=O)CN(c1cccc(F)c1)S(C)(=O)=O the results were NPYLR7 ag 3 and NPYLR7 ag max-min 4.
Screening Cc1cccc(C(=O)N[C@@H]2CC[C@@H](N)C2)c1O returned NPYLR7 ag 20 and NPYLR7 ag max-min 7.
Screening CN(C)[C@@H]1C[C@@H](CO)N(C(=O)NCCc2ccc(F)cc2)C1 returned NPYLR7 ag 11 and NPYLR7 ag max-min 9.
`CC(=O)OC(C(=O)N1CCC(c2nc(-c3ccc(Cl)cc3F)no2)CC1)c1ccccc1` (centres undefined) gave NPYLR7 ag -3 and NPYLR7 ag max-min -4.

Nothing new here: an excerpt of the list.
O=C1CC(c2nc3ccccc3n2Cc2ccccc2)CN1Cc1ccc(F)cc1 (centres undefined) was read as NPYLR7 ag 1 and NPYLR7 ag max-min 6.
For CCc1ccccc1NC(=O)N1CCN(c2cc(Oc3ccc(F)cc3F)ncn2)CC1C (centres undefined) the results were NPYLR7 ag -13 and NPYLR7 ag max-min 0.
`COCCOc1nc(-c2cccs2)n(-c2ccc(NC(=O)c3ccc(OC)cc3)cc2)n1` gave NPYLR7 ag -5 and NPYLR7 ag max-min 4.
O=C(O)c1ccccc1S(=O)(=O)Nc1ccc(OC(F)(F)F)cc1 was read as NPYLR7 ag 3 and NPYLR7 ag max-min -1.

Other records
Screening CN(Cc1cnn(-c2ccc(F)cc2)c1)Cc1cnn(C)c1C1CC1 returned NPYLR7 ag 2 and NPYLR7 ag max-min 1.
For CCOC(=O)N1CCN(C(=O)CCN2C(=O)c3ccccc3C2=O)CC1 the results were NPYLR7 ag -3 and NPYLR7 ag max-min -8.
For CN(CC(=O)NCc1ccco1)C(=O)CSc1nc(N)nc(N)n1 the results were NPYLR7 ag 1 and NPYLR7 ag max-min 3.
COc1ccc(NC(=O)c2csc(COC(=O)c3ccccc3)n2)cc1Cl was read as NPYLR7 ag -3 and NPYLR7 ag max-min -5.

Screening data deposited in PubChem BioAssay by Fisher Drug Discovery Resource Center.
